Bioassay records deposited in PubChem by ICCB-Longwood Screening Facility, Harvard Medical School.
GIV-Gai inh: inhibitors of GIV peptide binding to Galpha-i3, primary screen, biochemical, fluorescence polarization, FITC-GIV GBA peptide, rat Galphai3 | Guanine nucleotide-binding protein G(i) subunit alpha-3 (Rattus norvegicus), P08753 | 90 min; active compounds read low; scaled: aluminum fluoride 0%, vehicle 100% | percent of control (FP), % (concentration not given with the values) | 0.42% of 210,000 active;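 active = replicate mean at 85% of control or lower, very high polarization wells dropped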;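 also: wells of about 15 µL received 100 nL stock; the first replicate is given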
Target sequence (P08753 whole entry, looked up): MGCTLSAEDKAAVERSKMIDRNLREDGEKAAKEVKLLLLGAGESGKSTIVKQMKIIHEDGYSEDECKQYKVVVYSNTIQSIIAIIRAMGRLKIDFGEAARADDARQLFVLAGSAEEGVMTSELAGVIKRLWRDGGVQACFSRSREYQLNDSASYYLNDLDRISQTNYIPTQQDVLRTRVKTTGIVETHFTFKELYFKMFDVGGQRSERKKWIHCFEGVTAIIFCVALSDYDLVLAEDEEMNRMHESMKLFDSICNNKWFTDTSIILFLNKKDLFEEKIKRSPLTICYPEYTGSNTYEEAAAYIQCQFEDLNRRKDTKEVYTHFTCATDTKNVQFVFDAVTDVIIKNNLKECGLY
Sa growth inh: S. aureus growth inhibition at 42 and 30 °C, primary screen, LtaS inhibitor project, RN4220, two temperatures | OD600, 20 h, 42 °C; active compounds read low | relative growth, % (test concentration not listed) | 0.53% of 170,000 active | AID 720641, 2013;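 active = growth at 42 °C up to 50% and 20 or more points under that at 30 °C, or under 10% at both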;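 also: 300 nL library stock went into each well; scaled to the means of positive and negative controls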
HCMV UL50-53 inh: inhibitors of HCMV UL50-UL53 interaction, biochemical, HTRF | normalized percent inhibition | inhibition, % (test concentration not listed) | AID 1918969, 2023 | 0.15% of 190,000 active | HCMV UL50-UL53 nuclear egress complex (human cytomegalovirus);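 active = both replicates at 50% or more, plus weaker picks with an unusually low signal ratio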;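 also: stock transfer was 100 nL into about 20 µL; 0% = negative control wells and 100% = wells with untagged competitor protein; inactives centre near -12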
Sa growth inh second temp: also measured in Sa growth inh; calls as there; relative growth, %; measured here: growth at 30 °C;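 optical density after 20 h as mean of two plates; 100% = untreated growth and lower means inhibition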
* hit, by the source's call; x = no result given.

SMILES	GIV-Gai inh	Sa growth inh	Sa growth inh second temp	HCMV UL50-53 inh
COc1ccc(C(=O)NCc2ccc(-c3nc4ncccc4o3)cc2)c(OC)c1	100.6	111.8	85.0	-16.9
O=C(Cc1csc(NC(=O)c2ccccc2)n1)Nc1ccc2c(c1)OCO2	105.8	x	x	-24.3
CCN(C(=O)COc1ccc(Br)cc1F)C1CCS(=O)(=O)C1 (stereo unspecified)	x	84.8	93.7	-19.0
CCC(C)NC(=O)CN1N=C(c2ccc(Cl)cc2)CCC1=O (stereo unspecified)	104.4	104.3	84.1	-31.3
CN1CCN(c2ccc(C(=O)O)cc2NS(=O)(=O)c2ccccc2)CC1	111.5	x	x	-8.9
CCN(CC)C(=O)CSc1ccc(S(=O)(=O)N2CCN(C)CC2)cn1	x	110.5	91.6	-21.1
O=C(NNc1ncnc2ccccc12)c1ccc(Br)cc1	x	73.1	89.8	-8.7
Cc1cc(NCCc2ccccc2)n2ncnc2n1	109.1	95.3	86.3	-22.7
CCOC(=O)N1CCc2c(sc3c2c(=O)n(CCc2ccccc2)c(=O)n3Cc2ccc(C)cc2C)C1	107.3	113.4	86.4	-22.3
O=C1NCCCCC1NS(=O)(=O)c1cc(S(=O)(=O)c2ccccc2)cs1 (stereo unspecified)	109.1	94.5	95.7	-11.2
Cc1ccc(Nc2c(-c3cccnc3)nc3ccc(Br)cn23)cc1	103.3	95.4	93.2	5.3
CCOc1ccccc1N1CC(c2nc3ccccc3n2CCCOc2ccccc2)CC1=O (stereo unspecified)	109.2	105.8	35.7	-7.3
CCC(Sc1nnc2n1CCN2c1ccc(F)cc1)C(=O)OC (stereo unspecified)	99.0	x	x	-43.0
CCN(CC)CC(C)CNC(=O)c1cc(-c2ccc(Br)s2)nc2ccccc12 (stereo unspecified)	109.0	87.4	63.1	-69.2
Cc1c(C(=O)Nc2cccc(C(F)(F)F)c2)oc2ccc(S(=O)(=O)N(C)C3CCCCC3)cc12	102.2	115.8	90.0	x
CCn1c(CN2CCCCC2)nc2cc(NC(=O)COc3cc(C)ccc3C(C)C)ccc21	104.7	110.9	91.7	-20.4
Cc1cc(N2CCOCC2)nc2ccc(NC(=S)N3CC(C)CC(C)C3)cc12 (stereo unspecified)	104.9	88.0	72.3	x
Cc1cccc(-c2nccc(Nc3cccc(C(=O)NCCC(C)C)c3)n2)c1	102.8	x	x	-14.9
O=C(c1ccccc1)n1ccc2ccccc21	100.6	92.9	89.2	-12.0
Cc1c2cnn(-c3ccccc3)c(=O)c2c(C)n1CCCC(=O)NCCc1ccccc1	101.9	103.8	80.1	x
O=C(CCC(=O)N(Cc1ccccc1)Cc1ccccc1)Nc1ccc(F)cc1	x	90.6	111.9	-9.7
CCOC(=O)C1CCN(C(=O)c2oc3ccc4c(c3c2C)C(O)CC2(CCCCC2)O4)CC1 (stereo unspecified)	105.7	x	x	-5.7
C=CCNC(=S)Nc1ccc(N2CCN(c3ccc(C(F)(F)F)cn3)CC2)nc1	102.9	104.4	90.6	-37.3
CC(=O)NC(c1ccc(Cl)cc1)n1ccnc1 (stereo unspecified)	99.4	99.7	84.2	-5.8
O=C(O)CCn1nc(Nc2ccccc2)n(-c2ccccc2)c1=S	103.2	107.7	96.3	11.4
Cc1ccccc1OCC(=O)N(Cc1nnc(-c2ccc(Cl)cc2)o1)C(C)C	x	94.6	65.0	-14.2
FC(F)Oc1ccc(C2N=C(c3ccccc3)NO2)cc1 (stereo unspecified)	x	94.5	65.2	-3.3
O=C(O)c1cc(N2CCN(c3ccc(Cl)cc3)CC2)ccc1NC(=O)C1CC1	104.9	x	x	-31.2
Cc1ccc(-c2nc(S(=O)(=O)c3ccc(F)cc3)c(N3CCN(c4ccccc4)CC3)o2)cc1	106.0	99.9	94.5	4.4
COc1ccc(NC(=O)CSc2c(C(C)C)cnc3c2c(=O)n(C)c(=O)n3C)c(OC)c1	101.5	104.9	89.2	x
OCc1ccc(OCc2ccc(F)cc2)cc1	97.8	113.4	91.3	1.6
CCOc1ccc(N(CC(=O)Nc2cc(OC)cc(OC)c2)S(=O)(=O)c2c(C)[nH]c(=O)[nH]c2=O)cc1	105.2	109.9	85.0	-19.5
COc1ccc(OC)c(NC(=O)CSC2=Nc3ccccc3C3=NC(CC(=O)NCc4ccc5c(c4)OCO5)C(=O)N23)c1 (stereo unspecified)	105.4	61.6	86.0	x
COC(=O)c1cc2oc(C)cc2n1CC(=O)NCCC1=CCCCC1	106.5	105.6	87.0	5.3
O=C(Nc1ccncc1)c1nn2c(C(F)(F)F)cc(-c3cccs3)nc2c1Br	93.7	x	x	-20.8
CCOC(=O)c1cnc2cc(Cl)c(F)cc2c1OCC	111.4	98.1	95.5	4.8
C=CCn1c(=O)c(=O)n(Cc2ccc(C(=O)NCC(C)c3ccccc3)cc2)c2ccccc21 (stereo unspecified)	101.7	x	x	-13.1
Cc1ccc(C(=O)N2CCc3c(c(C(=O)NCc4ccccc4)nn3C)C2)cc1	102.1	x	x	-32.5
CC(C)NC(=O)C1CN(S(=O)(=O)c2ccccc2)CCN1S(=O)(=O)c1ccccc1 (stereo unspecified)	x	103.0	90.0	3.6
O=C(O)CCc1cc(Cl)no1	x	106.8	91.2	-2.3
O=C(CN1CCN(S(=O)(=O)c2cc(Cl)ccc2Cl)CC1)Nc1cccc(F)c1	97.1	99.5	86.6	x
COC(=O)C(NS(=O)(=O)c1ccc(N2CCCC2=O)cc1)c1ccccc1 (stereo unspecified)	x	83.8	81.0	-10.6
Cc1cccc(OCCn2cnc3c(cnn3C)c2=O)c1	x	80.9	89.0	-18.0
Cc1ccc(N2CC(C(=O)NCc3nnnn3-c3ccc(C)c(C)c3)CC2=O)cc1 (stereo unspecified)	98.6	95.6	85.4	x
O=C(COC(=O)COc1ccccc1F)NC1CC1	x	101.7	82.6	-43.4
COC(=O)C1=C(C(=O)c2ccccc2)C(c2ccccc2)n2ncnc2N1 (stereo unspecified)	107.6	101.7	106.2	14.0
CCCn1cnc2c(N)c(C)c(C)cc21	101.7	x	x	-13.9
COc1ccc(OC)c(NC(=O)CCc2c(C)nc3c(c(C)nn3C)c2C)c1	102.5	95.8	77.1	-3.3
COc1ccc(C(=O)c2oc3ccccc3c2NC(=O)COc2c(C)cc(C)cc2C)cc1	104.3	96.0	93.5	-22.3
Cc1c(Cl)cccc1N1C(N)=C(C#N)C(c2cc(CN3CCOCC3)cs2)C2=C1CCCC2=O (stereo unspecified)	109.3	108.5	97.8	-2.4
Further entries.
SMILES	GIV-Gai inh	Sa growth inh	Sa growth inh second temp	HCMV UL50-53 inh
S=C(NCc1cccs1)N1CCN(c2ncccn2)CC1	x	99.9	87.3	-23.1
CNC(=O)CN1CCNCC1	x	95.3	85.4	-18.4
COc1ccc(N(C)S(=O)(=O)c2ccc3c(c2)n(C)c(=O)c(=O)n3C)cc1	101.4	107.9	93.1	-7.5
Cc1nn(CC(=O)NCc2cccc(F)c2)c(=O)c2c(C)n(-c3ccc(Cl)cc3)nc12	100.7	96.4	93.9	x
COc1ccc(Cc2c(C)nn(-c3nc(C)c(C(=O)Nc4cccc(C(C)=O)c4)s3)c2C)cc1	103.9	106.0	95.7	4.1
CCc1nnc(SCC(=O)N(CC)Cc2ccccc2)c2cc3occc3n12	109.5	93.0	66.9	-83.8
O=C(NC(=O)c1cccc(F)c1)Nc1ccc(-c2cc(C(F)(F)F)nn2-c2ccccc2)cc1	100.8	94.9	100.4	22.6
CCc1cc2c(cc3c(=O)n(CC(=O)NCCc4ccc(OC)cc4OC)nc(CC)n32)s1	98.6	110.2	90.8	-32.3
CCOC(=O)C1=C(C)N=c2s/c(=C3\C(=O)N(C(C)=O)c4ccccc43)c(=O)n2C1c1ccc(OC)c(OC)c1 (stereo unspecified)	110.0	x	x	-6.7
CCNc1nc(NC(C)C)nc(NS(=O)(=O)c2ccc(C)cc2)n1	98.8	x	x	-28.0
CC(C)(C)c1ccc(/C=C/C(=O)Nc2ncccn2)cc1	108.5	101.5	85.9	-41.4
COc1cc(NC(=O)Cn2nc3c(cc2=O)CC(C)CC3)cc(OC)c1OC (stereo unspecified)	99.3	114.4	78.7	x
CCn1cc(NC(=O)NCC2COc3ccccc3O2)c(=O)c2ccc(C)nc21 (stereo unspecified)	98.7	87.4	81.3	-13.5
Cc1ccc(-c2cn3c(n2)sc2cc(C(=O)NCCC4=CCCCC4)ccc23)cc1	102.9	109.6	97.1	x
Cc1ccc(CNC(=O)c2ccc(CSCc3cccc(C)c3)o2)cc1	93.1	80.0	80.5	x
Cc1ccc(SCC(=O)Nc2nncs2)cc1	95.9	106.9	78.5	x
CCN(CC)C(=O)CN1CCN(c2cc(C(=O)O)c3cc(NC(=O)C4CCC4)ccc3n2)CC1	102.1	x	x	-40.2
Cc1ccc(N2C(=O)CN(S(C)(=O)=O)CC2(C)C(=O)NC2CCCC2)cc1F (stereo unspecified)	100.6	x	x	-22.3
Cc1ccc(Nc2nc(C)nc(N)c2S(=O)(=O)c2ccccc2)cc1	104.8	104.5	89.7	-22.7
CCOC(=O)N1CCC(n2c(SCC(=O)Nc3ccccc3C(=O)OC)nc3ccsc3c2=O)CC1	103.1	105.7	84.3	2.3

An excerpt from above in order of the GIV-Gai inh value, falling.
canonical_smiles	GIV-Gai inh
CCc1nnc(SCC(=O)N(CC)Cc2ccccc2)c2cc3occc3n12	109.5
O=C(c1ccccc1)n1ccc2ccccc21	100.6
CCn1cc(NC(=O)NCC2COc3ccccc3O2)c(=O)c2ccc(C)nc21 (stereo unspecified)	98.7

Quoted from the listing:
COC(=O)C(NS(=O)(=O)c1ccc(N2CCCC2=O)cc1)c1ccccc1 (stereo unspecified) in Sa growth inh is entered as 83.8
Cc1ccc(N2C(=O)CN(S(C)(=O)=O)CC2(C)C(=O)NC2CCCC2)cc1F (stereo unspecified) in GIV-Gai inh is entered as 100.6
CCOC(=O)C1=C(C)N=c2s/c(=C3\C(=O)N(C(C)=O)c4ccccc43)c(=O)n2C1c1ccc(OC)c(OC)c1 (stereo unspecified) in GIV-Gai inh is entered as 110.0
CCOc1ccc(N(CC(=O)Nc2cc(OC)cc(OC)c2)S(=O)(=O)c2c(C)[nH]c(=O)[nH]c2=O)cc1 in Sa growth inh is entered as 109.9
COc1ccc(OC)c(NC(=O)CSC2=Nc3ccccc3C3=NC(CC(=O)NCc4ccc5c(c4)OCO5)C(=O)N23)c1 (stereo unspecified) in Sa growth inh second temp is entered as 86.0
O=C(c1ccccc1)n1ccc2ccccc21 in GIV-Gai inh is entered as 100.6

A draw from above in order of heavy-atom count, low to high.
SMILES	GIV-Gai inh	Sa growth inh	Sa growth inh second temp	HCMV UL50-53 inh
FC(F)Oc1ccc(C2N=C(c3ccccc3)NO2)cc1 (stereo unspecified)	x	94.5	65.2	-3.3
Cc1cc(N2CCOCC2)nc2ccc(NC(=S)N3CC(C)CC(C)C3)cc12 (stereo unspecified)	104.9	88.0	72.3	x
Cc1nn(CC(=O)NCc2cccc(F)c2)c(=O)c2c(C)n(-c3ccc(Cl)cc3)nc12	100.7	96.4	93.9	x

Next results:
SMILES	GIV-Gai inh	Sa growth inh	Sa growth inh second temp	HCMV UL50-53 inh
CN1CCN(C(=O)c2ccc3c(c2)S(=O)(=O)c2ccccc2C3=O)CC1	x	88.1	83.8	-93.3
CCc1c(C)nc2nncn2c1Nc1ccc(C)c(F)c1	103.5	98.8	91.6	-27.3
COCCOC(=O)C1=C(N)C(C(=O)Nc2cccc(C#N)c2)SC1=Nc1ccc(C)cc1C (stereo unspecified)	x	79.7	86.9	-22.3
O=C(NC(=S)NC12CC3CC(CC(C3)C1)C2)c1ccccc1	96.8	100.8	90.8	-13.7
CC(CCNS(=O)(=O)c1ccc(-c2cc(C(F)(F)F)no2)s1)N1CCCCCC1 (stereo unspecified)	102.6	95.9	89.7	-46.4
O=C1NCCN1CCNS(=O)(=O)c1cccc2cccnc12	101.3	95.3	91.7	-17.1
COC(=O)c1ccccc1NC(=O)COc1ccc2oc(-c3ccco3)cc(=O)c2c1	107.3	88.5	102.9	-28.0
Cc1ccc2onc(CC(=O)N(C)c3ccccc3)c2c1	101.8	113.7	89.0	-14.2
Cn1c(O)c(Cc2c[nH]c3ccccc23)c(=O)n(C)c1=O	103.7	83.8	75.0	12.7
C/C(=C/C(=O)C(F)(F)F)N1CCN(S(=O)(=O)c2cccc(Cl)c2)CC1	x	93.0	82.6	-16.4
OC1CCN(CC2CC=CCC2)CC1 (stereo unspecified)	111.8	105.3	107.5	0.8
CCOC(=O)Cc1csc(SCC(=O)/C(C#N)=C(\C)N)n1	x	69.4	90.1	-7.2
Cc1ccc(C)c(Oc2nc3c(c(=O)n(C)c(=O)n3C)n2Cc2ccccc2)c1	106.5	102.3	80.9	-27.2
O=C(Cn1cc(/C=C2/C(=O)Nc3ccccc32)c2ccccc21)NCC1CCCO1 (stereo unspecified)	119.0	84.9	65.8	x
CCOC(=O)c1ccc(NC(=O)c2c(-c3ccc(OC)cc3)oc3ccc(OC)cc23)cc1	103.8	x	x	-8.1
CN(C1CCCCC1)S(=O)(=O)c1cccs1	103.8	78.8	88.4	-19.7
O=C1CC(c2ccccc2)CN1S(=O)(=O)c1ccccc1 (stereo unspecified)	104.0	109.1	83.9	-23.8
O=C(CCCn1c2ccccc2c2cn[nH]c(=O)c21)NCCc1ccccc1	98.3	110.1	89.1	x
